Compound activity as filed in PubChem BioAssay.
ClpP mod – qHTS Assay for Activators of ClpP; purified B. subtilis ClpP, FRET peptide cleavage, 20 min; Potency, µM (top dose mostly 57.5 µM), for the others: at the highest dose activity change, negative = active; 340,000 compounds, 1.9% hits; active = well fitted falling curve with a large enough effect; inconclusive = small, poorly fitted or top-dose-only effect; inactive = no such curve, though single readings can be large or run the other way; note: potency is the fitted concentration of half-maximal effect; the source files actives as falling curves though it sought activators and does not explain the sign; nearly all actives have a fitted effect of over 65% in size; many hits overshoot -100%
Target sequence (P80244 whole entry, looked up): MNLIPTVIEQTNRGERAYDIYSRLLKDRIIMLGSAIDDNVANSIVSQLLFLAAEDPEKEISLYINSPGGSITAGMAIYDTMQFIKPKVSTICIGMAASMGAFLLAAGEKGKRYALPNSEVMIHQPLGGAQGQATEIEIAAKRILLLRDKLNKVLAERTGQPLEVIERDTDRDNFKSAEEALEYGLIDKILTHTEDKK
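ClpP 10 microg/mL final, pH 8 Tris/KCl buffer with BSA, glycerol, Tween-20; compound pinned in; FRET-FV substrate; RT 20 min; Ex320/Em430; ΔFRET vs ADEP 5.8 microM, DMSO, no enzyme.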
Menin-MLL FL inh – inhibitors of human menin-MLL interaction, wild-type MLL peptide; 290,000 tested, under 10 active; AID 1766; Fluorescence polarization, fluorescein-MLL peptide displacement from menin; FP activity change, % at 61.4 µM; inconclusive = falling polarisation curve, or a change in total fluorescence; inactive = total fluorescence flat and polarisation flat or rising; no compound was filed as active; the % refers to the polarisation; negative = inhibition;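 note: % of control where 0% means no effect; inhibitors lower the polarisation; unlabelled MLL peptide was the positive control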
TRPV1 potentiator – potentiators of human vanilloid receptor 1 (TRPV1); Q8NER1; TRPV1-expressing cells, Fluo-8 calcium influx, capsaicin EC20 potentiation; host cell line not named in the record; control for the full effect not named in the record; potentiation, % at 8.33 µM; 320,000 compounds, 0.02% hits; active means potentiation above 80%; inconclusive means 30% to 80%; inactive means below 30%; note: 0% is about no effect
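Cells expressing TRPV1 were dye-loaded with Fluo-8 and read kinetically: 10 s baseline, 3 min after compound (agonist portion), then 2 min after EC20 capsaicin (allosteric enhancer portion). Calcium-bound dye fluorescence at 480/520 nm.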
D2 PAM – potentiates the human D2 dopamine receptor allosterically; P14416; DiscoveRx D2 beta-arrestin cells, luminescence, 90 min; 100% = 57 uM dopamine signal; potentiation, % (concentration not given with the values); 360,000 compounds, 0.23% hits; AID 624464; active = potentiation of 50% or more; inconclusive = 30% to 50%; inactive = 30% or less;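 note: tested on top of an EC20 dose of dopamine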
Target sequence (P14416 whole entry, looked up): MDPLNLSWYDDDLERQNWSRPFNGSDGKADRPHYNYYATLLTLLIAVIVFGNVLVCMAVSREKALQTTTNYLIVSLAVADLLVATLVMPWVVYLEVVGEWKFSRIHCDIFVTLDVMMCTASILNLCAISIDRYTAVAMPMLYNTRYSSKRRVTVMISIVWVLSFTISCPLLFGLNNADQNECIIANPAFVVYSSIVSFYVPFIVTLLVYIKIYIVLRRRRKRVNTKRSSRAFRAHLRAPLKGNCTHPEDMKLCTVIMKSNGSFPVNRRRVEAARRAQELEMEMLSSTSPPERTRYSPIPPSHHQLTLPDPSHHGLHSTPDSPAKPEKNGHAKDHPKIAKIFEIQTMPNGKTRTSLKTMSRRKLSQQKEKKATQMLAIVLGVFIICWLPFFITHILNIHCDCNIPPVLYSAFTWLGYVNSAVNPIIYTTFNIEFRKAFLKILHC
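PathHunter beta-arrestin assay in DiscoveRx D2 cells. Compounds were added with an EC20 of dopamine (50 nM final) for 90 min at 37 deg C. Luminescence was read 1 h after detection reagent, with 57 uM dopamine as the EC100 control.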
gsp ag – agonists of gsp mutant (McCune-Albright syndrome); gsp mutant cells, cAMP HTRF, 30 min; control for the full effect not named in the record; Potency, µM (series often up to 76.9 µM), for the others: at the top dose activation (cAMP increase), most hits filed as activators; 340,000 compounds, 0.13% hits; AID 624287; active = well fitted activation curve with a large enough effect; inconclusive = small, poorly fitted or top-dose-only effect, or another doubt; inactive = no such curve, though single readings can be large or run the other way; cell line not stated here;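 note: phosphodiesterase inhibitor Ro 20-1724 added with compounds to block cAMP breakdown; potency is the fitted concentration of half-maximal effect; nearly all actives have a fitted effect of over 60% in size; about a fifth of the inactives were tested at one dose only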
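Cells stably selected in G418 were plated at 2000/well, grown 16-24 hr, then given compounds in DMSO with the PDE inhibitor […] (300 uM solution added) for 30 min at 37C; cAMP was read by HTRF.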
gsp antag – antagonists of gsp mutant (McCune-Albright syndrome). gsp-mutant cells, cAMP HTRF, 30 min; control for the full effect not named in the record. Potency, µM (titrated, usually from 76.9 µM), for the others: top-dose activity change, negative = inhibition, hits mostly inhibitors. 340,000 compounds, 0.4% hits. AID 624288; active = falling curve of any shape with a large fitted effect; inconclusive = falling curve, mostly with a smaller effect; inactive = flat or rising curve; cell line not stated here;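 note: intracellular cAMP measured with PDE inhibitor Ro 20-1724 present during compound exposure; potency is the fitted concentration of half-maximal effect; % is set by controls: 0 for no effect and ±100 for the full control effect; nearly all actives have a fitted effect of over 65% in size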
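Measurement of cellular cAMP by homogeneous time-resolved fluorescence following a 30 min compound exposure at 37C. The PDE inhibitor […] was present throughout; the assay buffer was DPBS with 0.05% BSA and 0.005% Tween 20.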
Sfp PPTase inh – Sfp phosphopantetheinyl transferase inhibition; Q9F4F7; AID 1490; Biochemical Sfp PPTase activity, qHTS; Potency, µM, for the others: max response, negative = inhibition, actives largely listed as inhibitors; 310,000 compounds, 3.5% hits; active = well fitted inhibition curve with a large enough effect; inconclusive = small, poorly fitted or top-dose-only effect, or another doubt; inactive = no such curve, though single readings can be large or run the other way;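 note: the enzyme is Sfp with the accession as filed and its product quenches rhodamine fluorescence; potency is the fitted concentration of half-maximal effect; 0% = enzyme reaction without inhibitor and -100% = no enzyme wells; top concentration of the series not given in the record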
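Fluorescence-quenching assay: 15 nM Sfp-PPTase preincubated 15 min at room temperature with compound, then 5 uM rhodamine-CoA and 12.5 uM BHQ-2-labelled YbbR peptide added. Fluorescence (ex 525/em 598 nm) read at start and after 30 min; difference gives rate.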
The depositor's hits bear a star; ? = inconclusive; . = not tested or not shown; & = joins results of further samples; [ ] = another dose, or the depositor's remark.

mol	ClpP mod	Menin-MLL FL inh	TRPV1 potentiator	D2 PAM	gsp ag	gsp antag	Sfp PPTase inh
COc1cc(NC(=O)c2ccccc2)c(OC)cc1NC(=O)CN1CCCCC1	-2.2%	2.4	4.0	-1.8	-5.7%	-19.3%	10.3%
COc1ccccc1-c1nc(-c2ccccc2)nc(N2CCN(C)CC2)c1C#N	.	4.7	-6.9	-24.5	10.8%[15.4 µM]	.	-7.1%
COc1ccc(S(=O)(=O)Nc2ccc3c(c2)OCO3)cc1OC	0.6%	-3.8	-15.2	14.7	-27.0%	-12.6%	-7.7%
Cc1ccc2c(cnn2C(=O)CCC(=O)NC2CCCCC2)c1	-1.7%	3.7	-16.7	0.1	-49.4%[inhibitor]	-5.4%	-5.9%
Cc1ccc(-c2csc3nnc(SCC(=O)Nc4nsc(-c5ccccc5)n4)n23)cc1	-1.7%	1.4	21.9	-16.4	-54.0%[inhibitor]	-3.9%	-2.2%
O=C(NC(C(=O)NCCN1CCOCC1)C12CC3CC(CC(C3)C1)C2)C1CCCCC1 (stereo unspecified)	-0.5%	0.9	-6.6	-3.2	-2.0%	6.0%	15.1%
CC(=O)N1CCN(C(=S)c2ccc(N(C)C)cc2)CC1	-0.3%	5.2	-5.4	6.3	-2.6%	0.2%	35.5µM*
CCOC(=O)N1CCN(C(=O)COC(=O)Cc2ccc(OC)cc2)CC1	.	-0.7	5.5	-5.4	4.8%[15.4 µM]	6.6%	1.7%
O=C(N1CCOCC1)C1(S(=O)(=O)c2ccccc2)CC=CC1	-1.7%	3.4	-6.9	-9.0	.	6.2%	21.7%
Cc1ccc(NS(=O)(=O)c2ccc(Br)cc2)nc1	.	0.5	8.1	1.0	3.3%	2.9%	5.7%
CN1C(=O)c2ccccc2C(C(=O)NCCCN2CCCC2)C1c1c[nH]c2ccccc12 (stereo unspecified)	1.4%	-2.9	2.4	-9.8	-2.1%	5.9%	21.4%
Clc1cccc(Cl)c1CSc1cc2c(nn1)-c1ccccc1CC2	0.9%	3.5	-0.1	0.5	-32.2%[inhibitor]	9.1%	20.4%
CCn1ccc(C(=O)Nc2c(C)nn(Cc3c(F)c(F)c(F)c(F)c3F)c2C)n1	-0.3%	2.9	3.8	0.6	6.3%	9.5%	4.8%
O=C(NC(C1CC1)C1CC1)C1CCC(=O)N(CCCN2CCCC2=O)C1 (stereo unspecified)	0.3%	-1.5	13.4	-9.0	-10.4%	9.8%	16.4%
O=C(CSc1ncc(C(F)(F)F)cc1Cl)N1CCN(S(=O)(=O)c2ccc3ccccc3c2)CC1	-5.6%	5.3	-17.4	-2.9	28.7%	4.9%	11.9%
COc1ccc(C(=O)Nc2ccnn2C2CCN(Cc3ccc4nonc4c3)CC2)cc1	-0.1%	.	-2.0	-17.5	0.2%	-4.7%	3.9%
Cc1nc(-c2ccc(NC(=O)/C=C\C(=O)O)cc2)cs1	.	0.8	0.2	-2.1	6.7%[15.4 µM]	1.8%	10.7%
COc1cc(/C=N/n2c(-c3ccc4c(c3)NC(=O)CO4)csc2=Nc2cccc(C)c2)ccc1O	-0.6%	13.6	-5.3	-3.4	5.9%	14.2%	-27.4%
O=C(CN1C(=O)NC2(CCCCC2)C1=O)NCCc1ccc(Cl)cc1Cl	.	.	.	-2.1	?	7.5%	.
COc1ccc(OCc2cc(C(=O)N3CCCCCCC3)no2)c(Cl)c1	-0.2%	.	4.2	18.1	?	-9.8%	5.1%
O=C(Nc1ccccc1C(=O)N1CCCCCC1)c1cccc([N+](=O)[O-])c1	-1.4%	.	-1.4	-15.6	-0.1%[15.4 µM]	-1.2%	11.0%
COc1ccc(-c2nc(SCC(=O)N(CC(C)C)c3c(N)n(Cc4ccccc4)c(=O)[nH]c3=O)n[nH]2)cc1	.	.	1.5	-10.9	-2.3%[15.4 µM]	-4.4%	.
Cc1ccc(CCNC(=O)C2CCC(CNc3c(N4CCC(C)CC4)c(=O)c3=O)CC2)cc1 (stereo unspecified)	0.0%	-1.9	26.2	3.6	?	-18.7%	-11.3%
CCOC(=O)c1ccccc1NC(=S)N1CCC(C(N)=O)CC1	-2.3%	-0.8	2.4	3.9	14.7%	6.2%	3.8%
O=C(NNC(=O)c1ccccc1Cl)c1cccs1	0.7%	-0.4	11.4	-20.8	-18.9%	5.4%	-1.2%
NC(=O)COc1ccc2cc(-c3ccc(F)cc3)c(=O)oc2c1	.	-1.6	2.4	-1.9	-35.6%[inhibitor]	-20.0%	1.6%
COc1ccc(S(=O)(=O)N2CCC(C(=O)Nc3ccc(F)cc3)CC2)c2cccnc12	.	-1.0	-2.5	6.1	-12.1%[15.4 µM]	-10.5%	-1.2%
COc1ccc(Cc2c(O)nc(SCC(=O)N3CCOCC3)[nH]c2=O)cc1	-0.9%	1.5	1.0	-3.9	11.3%	4.2%	15.9%
Cc1cc(C)c(S(=O)(=O)N2CCCCC2CCNC(=O)C(=O)NCc2ccccn2)c(C)c1 (stereo unspecified)	-0.8%	.	4.8	-1.2	16.8%[15.4 µM]	-8.6%	.
C/C(CC(=O)Nc1cccc2c1CCCC2)=N\NC(=O)Cc1ccccc1	-1.3%	-0.9	4.1	-13.4	?	3.3%	10.8%
CC(=O)Nc1ccc(NC(=O)COC(=O)[C@@H](NC(=O)c2ccc(F)cc2)C(C)C)cc1	.	-6.0	3.2	-2.7	-1.5%	1.5%	20.5%
O=C(CC1SC(=Nc2ccccc2F)N(CCN2CCOCC2)C1=O)Nc1ccc(F)cc1F (stereo unspecified)	.	-4.0	-10.9	-13.2	-16.4%[15.4 µM]	5.4%	14.1%
COC(c1ccccc1)c1nnc(CCC(=O)NCc2ccc3ncccc3c2)o1 (stereo unspecified)	.	-1.8	4.7	5.2	-18.0%[15.4 µM]	-11.9%	1.3%
O=C(COC(=O)c1cccc([N+](=O)[O-])c1)Nc1ccc(Cl)cn1	.	.	-2.0	2.7	-16.5%[15.4 µM]	-0.6%	.
CN(C(=O)CSc1ncnc2ccccc12)C1CCS(=O)(=O)C1 (stereo unspecified)	-3.3%	.	-6.3	-2.6	12.6µM*	8.4%	.
CC(=O)N1CCN(C(=O)c2cccc(S(=O)(=O)N3CCN(c4ccc(F)cc4)CC3)c2)CC1	-0.5%	.	-3.5	3.7	0.7%	8.9%	.
COC(=O)C1CCC(=S)N1C(=O)c1ccccc1 (stereo unspecified)	2.1%	-2.0	0.9	-27.8	-0.1%	2.1%	?
COc1ccc(CCNC(=O)CS(=O)Cc2nc(-c3ccc(C)cc3)oc2C)cc1OC (stereo unspecified)	-5.2%&-8.2%	.	-0.9	-8.5	-2.1%	-0.1%	8.2%
Cc1ccc(CNC(=O)C2CCN(c3nc(C)cc(C)n3)CC2)cc1	.	.	.	-3.7	-9.4%[15.4 µM]	5.8%	.
C1CC1Cc1noc(CN2CCN(CC3CC3)CC2)n1	-4.9%	-1.6	2.2	-10.4	-8.7%[15.4 µM]	6.1%	3.7%
COc1ccnc(Oc2ccccc2)n1	-2.7%	0.1	-7.5	-1.0	-10.4%[15.4 µM]	12.4%	10.3%
COc1ccc(Cl)cc1-c1nc(SCC(=O)NC2CCCC2)n[nH]1	-5.0%	.	.	-15.2	-12.7%	-4.5%	.
CCOC(=O)c1c(-c2ccccc2)csc1NC(=O)/C(C#N)=C\c1ccc(O)c(OC)c1	.	.	.	0.3	0.3%	-20.2%	.
OC(COc1cccc(OCC(O)CN2CCOCC2)c1)CN1CCOCC1 (stereo unspecified)	0.8%&1.0%	-0.8&-0.3	4.4&5.0	-4.2&10.0	-73.2%&-15.5%[inhibitor]	-4.1%&21.9%	14.4%&12.9%
COc1cc(CN2CCC(CO)(CCOc3ccccc3)CC2)cc(OC)c1OC	1.4%	-0.7	5.0	-14.3	?	-19.7%	3.8%
CC1CCCC(C)N1C(=O)COC(=O)C1CCN(S(=O)(=O)c2ccc3c(c2)OCCO3)CC1 (stereo unspecified)	.	.	-2.2	-3.5	-2.7%[15.4 µM]	-0.3%	.
Cn1c(N)c(C(=O)CSc2nnc(Cc3cccs3)n2C2CC2)c(=O)n(C)c1=O	0.6%	.	22.9	-14.0	7.0%	25.0%	.
CCOCCn1c(CN(C)Cc2ccccc2)nc2c1c(=O)n(C)c(=O)n2C	-1.1%	2.9	-0.7	0.7	3.0%	0.4%	9.5%
O=C(Nc1ccc(S(=O)(=O)Nc2ncccn2)cc1)c1ccc(F)c(S(=O)(=O)N2CCOCC2)c1	0.0%	?	-9.4	-8.3	?	-12.5%	8.7%
Cc1cc(NC(=O)CSc2ccc3ccccc3c2)no1	-1.2%	5.9	5.2	16.8	-25.2%	-10.5%	-3.0%
O=C(C1CC(=O)N(c2ccc3c(c2)OCCO3)C1)N1CCN(S(=O)(=O)c2cccc(F)c2)CC1 (stereo unspecified)	-2.4%	.	.	6.9	-41.4%[inhibitor]	-6.5%	.
COc1cc(C(=S)N2CCOCC2)cc(OC)c1OC(=O)c1ccc([N+](=O)[O-])cc1[N+](=O)[O-]	-1.7%	-0.6	-3.2	136.5*	-7.2%[15.4 µM]	-1.5%	7.8%
CC(=O)NS(=O)(=O)c1ccc(NC(=O)c2cccc(OCc3c(C)noc3C)c2)cc1	0.0%	.	-9.8	-0.9	-9.7%	1.7%	.
